Screens (PubChem BioAssay)
VDR inh: Inhibitors of the vitamin D receptor (VDR): qHTS | Vitamin D3 receptor (Homo sapiens), P11473 | VDR-SRC2-3 peptide fluorescence polarization, 2 h | Potency, µM, for the others: max response, negative = inhibition, usual class: inhibitors | actives 0.93% (n = 400,000) | AID 504847, 2011; active = well fitted inhibition curve with a large enough effect; inconclusive = small, poorly fitted or top-dose-only effect, or another doubt; inactive = no such curve, though single readings can be large or run the other way; note: series mostly up to about 120 µM
Target sequence (P11473 whole entry, looked up): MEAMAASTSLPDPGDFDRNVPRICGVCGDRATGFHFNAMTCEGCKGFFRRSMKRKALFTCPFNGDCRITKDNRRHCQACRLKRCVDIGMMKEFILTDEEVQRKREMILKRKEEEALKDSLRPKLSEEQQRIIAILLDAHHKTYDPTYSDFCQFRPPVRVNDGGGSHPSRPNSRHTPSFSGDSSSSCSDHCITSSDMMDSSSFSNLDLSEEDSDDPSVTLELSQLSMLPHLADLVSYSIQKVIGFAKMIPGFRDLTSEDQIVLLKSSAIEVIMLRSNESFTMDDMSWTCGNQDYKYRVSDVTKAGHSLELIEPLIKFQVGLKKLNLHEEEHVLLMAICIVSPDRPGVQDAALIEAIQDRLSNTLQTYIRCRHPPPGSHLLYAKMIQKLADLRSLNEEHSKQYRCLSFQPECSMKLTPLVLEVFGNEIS
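Signal is fluorescence polarization, reporting how far test compounds block the interaction of VDR with the SRC2-3 coregulator peptide after a 2 h room-temperature incubation.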
* marks the source's active call; other numbers are inactive results; ? = inconclusive; & = joins results of further samples. % is set by controls: 0 for no effect and ±100 for the full control effect; potency is the fitted concentration of half-maximal effect. This is a subset; rates above refer to the full screens.

VDR inh	Compound
-13.7%	Cc1ccc2nsnc2c1NC(=O)COc1ccccc1
14.4%	CCC(C)NC(=O)C(Cc1ccccc1)n1cccc1 (stereo not drawn)
-5.2%	C=CCn1cnc2scc(-c3ccc(C)cc3)c2c1=O
1.7%	CC(CN1CCN(C)CC1)OC(=O)c1ccccc1Cl (stereo not drawn)
-5.9%	CS(=O)(=O)c1ccc(Sc2nc3ccccc3s2)c([N+](=O)[O-])c1
-1.8%	CS(=O)(=O)N1CCN(C2CCN(Cc3ccccc3)CC2)CC1
-14.8%	CCCCN(C(=O)c1cc(Cl)nc2ccccc12)c1c(N)n(Cc2ccccc2)c(=O)[nH]c1=O
-13.7%	C/C(=N\N=C1\NC(=O)CC(C(=O)O)S1)c1ccc(F)cc1 (stereo not drawn)
10.1%	CC(C)C(NC(=O)c1ccc(Cl)cc1)C(=O)NCC1CCCO1 (stereo not drawn)
3.9%	Cc1sc2c(c1C)C(=O)/C(=C\Nc1ccncc1)S(=O)(=O)N2C
?	CCOC(=S)SCC(=O)Nc1nc(-c2ccc(Br)cc2)cs1
-5.3%	CCOC(=O)Nc1cccc(Nc2ccccc2)c1
5.2%	COc1ccc(N(CC(=O)N2CCOCC2)S(=O)(=O)c2ccccc2)cc1Cl
-8.1%	COc1ccc([C@H]2CC(=O)C=C(c3cccc(Br)c3)C2)cc1OC
7.3%	O=C(Cn1c(NCCO)nc2ccccc21)c1ccc([N+](=O)[O-])cc1
?	CS(=O)(=O)Nc1cccc(-c2nc(-n3ccnc3)c3ccccc3n2)c1
-4.4%	CCOc1ccc(C(=O)c2cn(CC(=O)Nc3ccc(OC)cc3)c3cc4c(cc3c2=O)OCCO4)cc1
0.7%	CCOC(=O)C1CCN(S(=O)(=O)c2ccc(NC(=O)OC)cc2)CC1
-7.5%	O=C(CCC(=O)N1CCN(C(=O)c2ccco2)CC1)c1ccc(F)cc1
-10.9%	COc1cccc(CN(C(=O)c2cccs2)C2CCS(=O)(=O)C2)c1 (stereo not drawn)
-3.3%	O=C1CCC(=O)N1c1ccc(S(=O)(=O)Nc2cccc(Br)c2)cc1
-0.8%	O=C(/C=C/c1ccco1)NC1=NCCS1
3.6%	CCN(CC)CC(=O)Nc1scc2c1c(=O)oc1ccccc12
-3.3%&-5.9%	COc1ccc(C(CCN2CCCC2)c2c(OC)cc(OC)c3c(-c4ccccc4)cc(=O)oc23)cc1 (stereo not drawn)
-1.5%	Cc1nn(C)c(Cl)c1C(=O)NC(C(=O)O)c1ccccc1 (stereo not drawn)
-7.8%	CCCCNc1c([N+](=O)[O-])cc(C(=O)O)cc1[N+](=O)[O-]
9.5%	Nc1cc(=O)[nH]c(=O)n1CCCc1ccccc1
6.8%	COc1ccc(NC(=O)c2cc(S(=O)(=O)N3CCCCC3)c[nH]2)cc1
29.8%	O=C(O)[C@H](Cc1ccccc1)NC(=O)N1CCOCC1
-13.8%	CCOC(=O)Cc1nnc(NC(=O)C(CC)Sc2nncn2C)s1 (stereo not drawn)
-10.7%	CCOc1ccc(S(=O)(=O)Nc2ccc(C(=O)NCC(c3ccccc3)N(C)C)cc2)cc1 (stereo not drawn)
?	COc1ccc(/C=N/NC(=O)Nc2cccc3nsnc23)cc1
-0.4%	C=C(C)CSc1nnc([C@@H]2CCCN2)o1
1.3%	COc1ccc(CCNC(=O)Cn2c(=O)n(-c3ccc(C)c(F)c3)c(=O)c3sccc32)cc1OC
-9.2%	C=CCC[C@@H](Cc1ccc(F)cc1)C(=O)OCCNC(=O)[C@@H](CC=C)CC(=O)N[C@@H](CO)Cc1ccccc1
-18.1%	CC(C)=CCN1CCN(Cc2cccc3c2OCO3)CC1CCO (stereo not drawn)
2.6%	Cc1cc2nn(-c3ccc(F)cc3)nc2cc1N
-14.9%	Cc1ccc(C(=O)N2CC(=O)NC(=O)C2)cc1
10.5%	CC1CN(C(=O)/C=C/c2ccc([N+](=O)[O-])s2)CC(C)O1 (stereo not drawn)
8.8%	N#CCCN(Cc1cccnc1)C(=S)Nc1ccc(OC(F)F)cc1
-2.9%	O=C(Cn1c(C(F)(F)F)nc2ccccc21)N/N=C/c1ccco1
?	CCCCCCCCCCCCCCCCCCc1ccc(C(=O)/C=C/C(=O)O)cc1
15.0%	O=C1CCCN1c1ccc(S(=O)(=O)NCc2ccco2)cc1
16.9%	CC(C)c1ccc(S(=O)(=O)N2CCN(Cc3cccc(F)c3)CC2)cc1
-22.6%&-5.6%	COc1ccc(NC(=O)CSc2nc3ccccc3nc2N2CCOCC2)c(OC)c1
12.6%	CN(C)c1ccc(/C=C/C=N/Nc2nc(N3CCOCC3)nc(N3CCOCC3)n2)cc1
7.9%	CCC(CC)C(=O)Nc1ccc(Cl)c(Cl)c1
3.0%	CCOC(=O)C1=C(C)NC(SCC(=O)O)=C(C#N)C1c1ccco1 (stereo not drawn)
-18.3%	COc1ccccc1NC(=O)COC(=O)c1ccc2c(c1)nc(C)n2-c1ccccc1
6.1%	c1ccc(C2c3[nH]c4ccccc4c3CCN2Cc2cccn2-c2cccnc2)nc1 (stereo not drawn)
-1.4%	CCOC(=O)C1CCN(S(=O)(=O)c2c(C)noc2C)CC1
-15.7%	CCOC(=O)c1nc(Nc2ccc(Nc3ccccc3)cc2)c2ccccc2n1
-0.4%	O=C(Nc1ccc2ccccc2c1)NC1CCS(=O)(=O)C1 (stereo not drawn)
-14.9%	COc1ccc(OC)c(C(O)c2nc3ccccc3n2C(C)C)c1 (stereo not drawn)
-4.0%	OC(CNCC1CCCO1)Cn1c2ccccc2c2ccccc21 (stereo not drawn)
11.7%	Cc1cc(O)c(C(C)C)cc1NC(=O)Nc1ccc([N+](=O)[O-])cc1
-21.9%	CCCn1c(SCc2ccc(Cl)cc2)nc2c1c(=O)[nH]c(=O)n2C
5.4%	CS(=O)(=O)C1=NN2C(=N)/C(=C\c3ccc(OC(=O)c4ccco4)cc3)C(=O)N=C2S1
0.2%	CCOc1ccc(S(=O)(=O)NCC(c2ccc3c(c2)OCO3)N2CCN(C)CC2)cc1 (stereo not drawn)
14.5%	Cc1ccc(S(=O)(=O)NCC(c2ccc(N(C)C)cc2)N2CCc3ccccc32)cc1 (stereo not drawn)

Next section.
VDR inh	Compound
5.2%	CCOC(=O)CCNC(=O)N1CCCC(CCC(=O)N(C)CCc2ccccn2)C1 (stereo not drawn)
21.5%	COc1ccc(NC(=O)CSc2nncn2N)c(OC)c1
-5.9%	COc1cc(C)nc(N(Cc2ccccc2)S(=O)(=O)c2ccccc2)n1
15.2%	Cc1cc(NC(=O)C(C)SCC(=O)OCC(=O)N(Cc2ccccc2)C(C)(C)C)no1 (stereo not drawn)
3.3%	O=C(O)CCn1[nH]c(=O)c2ccccc2c1=O
-0.6%	Cc1cc(Cl)ccc1OCC(=O)N(Cc1sccc1C)C1CCS(=O)(=O)C1 (stereo not drawn)
0.3%	CCN(Cc1nc(-c2ccc(OC)cc2)oc1C)S(=O)(=O)c1ccc(Cl)cc1
-9.7%	Fc1ccccc1OCCn1c(=S)[nH]c2ccccc21
15.5%	CCC(C)Sc1nc2c(c(=O)[nH]c(=O)n2C)n1CCc1ccccc1 (stereo not drawn)
6.5%	O=C(NNS(=O)(=O)c1ccccc1F)c1sccc1-n1cccc1
2.0%	COCC(=O)N1CCC(Oc2cccc(C(=O)NCc3ccccn3)c2)CC1
-7.7%	COc1ccccc1NC(=S)NCCc1ccc(F)cc1
-13.4%	O=C(NNC(=O)c1ccc(S(=O)(=O)N2CCCCC2)cc1)c1ccccc1
7.1%	O=C(O)c1ccc2c(=O)n3c(nc2c1)/C(=C/c1ccccc1C(F)(F)F)CCCC3
4.5%	CCCCn1c(SCC(=O)N2CCCC2)nc2cc(S(N)(=O)=O)ccc21
-6.9%	O=C(CSc1nnc(-c2c[nH]c3ccccc23)o1)c1ccc(-c2ccccc2)cc1
-0.5%	COC(=O)CN1C(=S)N(c2ccc(Cl)cc2)C(=O)C1CC(=O)Nc1ccc(F)cc1 (stereo not drawn)
-8.9%	Cc1cc2nn(-c3ccc(F)cc3)nc2cc1NC(=O)c1cccc2ccccc12
-0.1%	O=C(NCc1ccccc1)c1cnc2n(c1=O)CCS2
5.8%	CC1CCCCC1NS(=O)(=O)c1ccc(S(=O)(=O)NCc2ccncc2)cc1 (stereo not drawn)

Arranged by the number under VDR inh (rising): 6 from the list above
VDR inh	Compound
-7.7%	COc1ccccc1NC(=S)NCCc1ccc(F)cc1
-0.5%	COC(=O)CN1C(=S)N(c2ccc(Cl)cc2)C(=O)C1CC(=O)Nc1ccc(F)cc1 (stereo not drawn)
2.0%	COCC(=O)N1CCC(Oc2cccc(C(=O)NCc3ccccn3)c2)CC1
4.5%	CCCCn1c(SCC(=O)N2CCCC2)nc2cc(S(N)(=O)=O)ccc21
7.1%	O=C(O)c1ccc2c(=O)n3c(nc2c1)/C(=C/c1ccccc1C(F)(F)F)CCCC3
21.5%	COc1ccc(NC(=O)CSc2nncn2N)c(OC)c1

For reference, 6 of the compounds above.
VDR inh	Compound
-22.6%&-5.6%	COc1ccc(NC(=O)CSc2nc3ccccc3nc2N2CCOCC2)c(OC)c1
12.6%	CN(C)c1ccc(/C=C/C=N/Nc2nc(N3CCOCC3)nc(N3CCOCC3)n2)cc1
7.9%	CCC(CC)C(=O)Nc1ccc(Cl)c(Cl)c1
3.0%	CCOC(=O)C1=C(C)NC(SCC(=O)O)=C(C#N)C1c1ccco1 (stereo not drawn)
-18.3%	COc1ccccc1NC(=O)COC(=O)c1ccc2c(c1)nc(C)n2-c1ccccc1
6.1%	c1ccc(C2c3[nH]c4ccccc4c3CCN2Cc2cccn2-c2cccnc2)nc1 (stereo not drawn)

Further results
VDR inh	Compound
13.8%	Cc1oc(-c2ccccc2Cl)nc1CS(=O)CC(=O)NCc1cccs1 (stereo not drawn)
-18.1%	CCn1nc(C)c(NC(=O)c2ccc(Cl)cc2)c1C
5.2%	COc1ccc(CNC(=O)Cc2csc3nc(-c4ccc(F)cc4)cn23)cc1
2.7%	COCCN(CC(=O)Nc1ccccc1C)S(=O)(=O)c1ccc(S(=O)(=O)N2CCCC2)cc1
?	COc1ccc(-c2nnc3sc(C(C)N4C(=O)c5ccccc5C4=O)nn23)cc1 (stereo not drawn)
17.7%	O=C(O)CSCC(=O)N1CCCN(c2ccc(C(F)(F)F)cn2)CC1
19.4%&15.0%&1.2%	Nc1nc2ncc(CNc3ccc(C(=O)N[C@@H](CCC(=O)O)C(=O)O)cc3)nc2c(=O)[nH]1
-11.4%	CCN(CC)S(=O)(=O)c1cc(-c2nn(C)c(=O)c3ccccc23)ccc1C
-16.0%	CCOC(=O)C1CCN(c2nc3c(C)cccn3c(=O)c2/C=C(\C#N)S(=O)(=O)c2ccccc2)CC1
4.4%	CC(C)[C@@H]1NC(=O)c2cc([N+](=O)[O-])cc(I)c2NCCC[C@@H](C(N)=O)NC(=O)[C@H](CO)NC1=O
-1.1%	COc1ccccc1N(Cc1ccccc1)S(=O)(=O)c1cccc(C(=O)Nc2ccc(C)cn2)c1
22.4µM*	O=C(NCc1cccnc1)/C(=C/c1ccc(-c2ccc(Cl)cc2)o1)S(=O)(=O)c1ccccc1
4.6%	O=C(Nc1cnn(Cc2ccc(Cl)cc2Cl)c1)c1cc(-c2cccs2)on1
-7.2%	Cc1cc(=O)oc2cc(NC(=O)c3cccc(S(C)(=O)=O)c3)ccc12
29.2%	NC(=O)c1ccc(CSc2nc3ccccc3s2)cc1
7.3%	COc1cccc(C(=O)Nc2nc(SCc3ccc(Cl)cc3)n[nH]2)c1
12.0%	Cc1ccc(NC(=S)N2CCCC2)cc1C
6.4%	O=C1CC(C(=O)NC2CCCCC2)C2(CCCCC2)O1 (stereo not drawn)
-0.9%	Cc1ccc(OCCn2cc(C(=O)C3CCCCC3)c3ccccc32)cc1
-15.5%	CCOC(=O)C1CCCN(S(=O)(=O)c2cc(OCC(=O)NC3CCCCC3)c(C)cc2Cl)C1 (stereo not drawn)
-9.2%	O=C(Cc1ccc(F)cc1)NCCc1csc2nc(-c3ccccc3F)nn12
7.2%	COC(=O)c1c(-c2ccc(Cl)cc2)noc1N1CCN(c2cccc(OC)c2)CC1
9.6%	CCCCNC(=O)c1cc2n(n1)CCCN(Cc1ccc(C)cc1)C2=O
-9.4%	O=C(CN(C1CCCCC1)S(=O)(=O)c1ccc(F)cc1)NCc1ccncc1
5.3%	O=C(C1CCCN(S(=O)(=O)Cc2ccccc2)C1)N1CCC(Cc2ccccc2)CC1 (stereo not drawn)
-7.2%	Cc1ccc2[nH]cc(C(c3ccccc3)c3ccc(C)s3)c2c1 (stereo not drawn)
7.1%	O=C(NC(=S)NCCN1CCOCC1)c1cccc(Cl)c1
-11.4%	CCN(CC)CCn1c2ccccc2c2nc3ccccc3nc21
-16.2%	COC(=O)[C@@H](NCc1cccc(CN[C@H](C(=O)OC)c2ccccc2)c1)c1ccccc1
-10.1%	CCCCNC(=S)Nc1ccccc1Cc1ccccc1
2.5%	Cc1ccccc1-n1nc2c(c1NC(=O)c1ccco1)CS(=O)(=O)C2
?	COc1ccc(C(=O)N2CCN(S(=O)(=O)c3cc(Cl)ccc3OC)CC2)cc1
-5.4%	COc1cc(OC)cc(OC(=O)C2CCN(C3=NS(=O)(=O)c4ccccc43)CC2)c1
-12.1%	O=C(OCC(=O)N1N=C(c2ccc(Cl)cc2)CC1c1ccco1)c1ccco1 (stereo not drawn)
14.5%	COc1ccc(CN2CCN(S(=O)(=O)c3ccc(NC(C)=O)cc3)CC2)cc1OC
-3.6%	CCC(=O)Nc1ccc2c(c1)C(=O)N(C)C2=O
3.0%	CN(c1ccccc1)S(=O)(=O)c1cccc(C(=O)N2CCN(c3ccccn3)CC2)c1
-3.2%	O=C(COc1ccccc1Cl)Nc1ccc(OCc2cc(=O)n3ccsc3n2)cc1
7.7%	Cc1cc(C)c(C)c(S(=O)(=O)N2CCC(C(=O)N3CCN(c4ccc(F)cc4)CC3)CC2)c1C
6.3%	Cc1ccc(NC(=O)C(=O)NCC(c2cccnc2)N2CCc3ccccc32)cc1Cl (stereo not drawn)
